# D2 PAM = human D2 receptor positive allosteric modulation; P14416; DiscoveRx D2 beta-arrestin cells, luminescence, 90 min; 100% = 57 uM dopamine signal; potentiation, % (concentration not given with the values); hit rate 0.23% among 360,000; AID 624464; active = potentiation of 50% or more; inconclusive = 30% to 50%; inactive = 30% or less;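 note: compound concentration not given in the record; tested on top of an EC20 dose of dopamine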
# Target sequence (P14416 whole entry, looked up): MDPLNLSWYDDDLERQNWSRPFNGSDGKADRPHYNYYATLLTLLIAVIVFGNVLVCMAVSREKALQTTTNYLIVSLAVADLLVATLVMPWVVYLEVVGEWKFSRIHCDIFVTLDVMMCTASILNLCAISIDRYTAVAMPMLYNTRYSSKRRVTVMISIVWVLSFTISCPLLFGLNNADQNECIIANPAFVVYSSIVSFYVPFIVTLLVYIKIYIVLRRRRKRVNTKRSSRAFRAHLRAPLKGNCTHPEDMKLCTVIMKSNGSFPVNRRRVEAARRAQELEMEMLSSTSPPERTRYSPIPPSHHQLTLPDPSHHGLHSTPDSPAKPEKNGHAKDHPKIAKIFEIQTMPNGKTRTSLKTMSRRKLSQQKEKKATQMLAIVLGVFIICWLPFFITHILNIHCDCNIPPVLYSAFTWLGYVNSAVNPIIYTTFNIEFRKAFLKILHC
#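 D2 cells co-treated with compound plus 50 nM dopamine (EC20) for 90 min at 37 deg C to detect potentiation. Beta-arrestin recruitment was read as enzyme-fragment luminescence after 1 h at ambient temperature. Full response was set by 57 uM dopamine.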
# D2 agonist = activates the human D2 dopamine receptor; P14416; DiscoveRx PathHunter D2 beta-arrestin, luminescence, 90 min; 100% = 57 uM dopamine signal; activation, % (concentration not given with the values); hit rate 0.084% among 360,000; AID 624465; in the data active = activation above about 40%; inconclusive = about 15% to 40%; inactive = below about 15%; note: compound concentration not given in the record; the text of the record calls up to 30% inactive
#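 DiscoveRx PathHunter D2 beta-arrestin cells (2,100/well) attached overnight, then compound-stimulated 90 min at 37 C in HBSS/10 mM HEPES/0.1% Tween-20 buffer; beta-galactosidase complementation read by luminescence after 1 h at ambient temperature. Dopamine 57 uM final (EC100) as control.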
# Six1-Eya2 inh = blocks human Six1 binding to Eya2; Q15475+O00167; AlphaScreen GST-Six1/His-Eya2 binding, biochemical; stronger effect = lower value; control for the full effect not named in the record; activity change, % (no concentration beside the values); hit rate 0.56% among 360,000; AID 651725; in the data active = activity change below about -65%; inconclusive = about -30% to -65%; inactive = above about -30%; note: % is set by controls: 0 for no effect and ±100 for the full control effect; compound concentration not given in the record
#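 Homogeneous AlphaScreen proximity assay pairing GST-Six1 with His-tagged Eya2 (added as 5X mix: 250 nM and 500 nM) in 50 mM Tris pH 8.0, 300 mM NaCl, 1 mM TCEP. Glutathione donor and nickel acceptor beads; 1 h, 37 °C, dark.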
# PINK1 expr mod = modulators of PINK1 expression; Potency, µM (top dose mostly 76.6 µM), for the others: top-dose activation (PINK1 increase), hits mostly activators; AID 624263; hit rate 0.2% among 410,000; PINK1 immunofluorescence, high-content cytometry, 24 h; active = well fitted activation curve with a large enough effect; inconclusive = small, poorly fitted or top-dose-only effect; inactive = flat fitted curve, though single readings scatter; cell line not stated here;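 note: potency is the fitted concentration of half-maximal effect; % of control where 0% means no effect; nearly all actives have a fitted effect of over 65% in size; a mitochondrial uncoupler was the plate control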
#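 Stable cell line treated 24 h with compounds at 5 concentrations (CCCP controls), then fixed and immunostained for PINK1 plus nuclear and cell stains; PINK1 immunofluorescence quantified by laser-scanning microplate cytometry.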
# CtBP-E1A blk = blocks the CtBP interaction with E1A; hit rate 0.49% among 340,000; activity change, % (concentration not given with the values); AID 651724; AlphaScreen GST-E1A/His-CtBP binding, 1536-well; stronger effect = lower value; control for the full effect not named in the record; in the data active means activity change below about -65%; inconclusive means about -30% to -65%; inactive means above about -30%; note: % is set by controls: 0 for no effect and ±100 for the full control effect
#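 Protein mix (5X: 125 nM each GST-E1A, His-CtBP) was incubated with pinned compound 2 h at 37 deg C in dark, in 50 mM Tris pH 8.0 buffer with 300 mM NaCl. Glutathione donor and nickel acceptor beads followed; AlphaScreen signal read after 1 h.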
# TRPML1 ag = human mucolipin-1 channel agonism. AID 624414. TRPML1-expressing cells, Ca2+ dye fluorescence, FDSS; host cell line not named in the record; reference of the full effect not given here. activation, % (concentration not given with the values). hit rate 0.12% among 410,000; in the data active = activation above about 50%; inconclusive = about 30% to 50%; inactive = below about 30%; note: 0% is about no effect; the text of the record puts the active cut at 80%
# Target sequence (Q9GZU1 whole entry, looked up): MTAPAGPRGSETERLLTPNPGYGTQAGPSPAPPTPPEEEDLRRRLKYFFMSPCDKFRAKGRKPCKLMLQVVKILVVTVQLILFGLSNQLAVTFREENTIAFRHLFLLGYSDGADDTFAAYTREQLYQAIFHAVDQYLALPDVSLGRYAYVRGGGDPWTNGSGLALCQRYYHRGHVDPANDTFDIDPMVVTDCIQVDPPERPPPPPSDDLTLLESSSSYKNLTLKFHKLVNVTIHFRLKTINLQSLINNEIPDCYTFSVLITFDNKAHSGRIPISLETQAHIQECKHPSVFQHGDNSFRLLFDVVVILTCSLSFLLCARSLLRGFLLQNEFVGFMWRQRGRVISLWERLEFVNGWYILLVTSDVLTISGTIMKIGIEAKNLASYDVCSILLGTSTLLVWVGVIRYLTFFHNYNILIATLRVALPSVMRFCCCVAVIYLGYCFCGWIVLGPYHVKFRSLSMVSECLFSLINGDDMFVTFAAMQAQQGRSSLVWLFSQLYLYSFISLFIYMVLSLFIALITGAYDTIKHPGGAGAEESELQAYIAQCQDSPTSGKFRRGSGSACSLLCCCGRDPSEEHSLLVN
#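 Tet-induced TRPML1-DL cells, 1,500 per well, cultured overnight, were loaded with a no-wash Ca2+ dye for 45–90 min. Calcium fluorescence was recorded on the FDSS for 110 s after compound addition, before the EC80 agonist (4 uM 54-4) was added.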
# * hit, by the source's call; ? = inconclusive; . = not tested or not shown; & = joins results of further samples; [ ] = dose if it differs, or a comment.
Structure	PINK1 expr mod	CtBP-E1A blk	D2 agonist	Six1-Eya2 inh	TRPML1 ag	D2 PAM
COc1cc2c(cc1OC)-c1cc3ccc4c(c3c[n+]1CC2)OCO4	0.4%	?	8.0	-25	5.2	3
O=C(NCCCN1CCN(c2cccc(Cl)c2)CC1)c1nc(-c2ccncc2)no1	-2.6%	-12	9.4	-13	0.4	-15
COc1ccc(NS(=O)(=O)c2ccc(O)c([N+](=O)[O-])c2)cc1S(=O)(=O)N1CCCCC1	3.7%	0	-0.6	-2	-1.0	-9
O=S(=O)(NCC(c1ccc2c(c1)OCO2)N1CCOCC1)c1ccc(Br)cc1 (stereo unspecified)	-0.6%	7	-0.3	-3	-0.9	-3
O=C(O)c1cccnc1SC1CC(=O)N(c2cccc(C(F)(F)F)c2)C1=O (stereo unspecified)	1.3%	5	-3.8	6	-0.6	3
O=C(COn1nnc2ccccc21)N1CCN(Cc2ccccc2)CC1	0.7%	1	-3.0	-6	-0.4	-10
CCOC(=O)C1=C(COC(=O)COc2ccc(C(C)=O)cc2)NC(=O)NC1C (stereo unspecified)	-2.1%	6	0.2	7	0.7	-8
Cc1ccc[n+](CC(=O)c2cc3ccccc3oc2=O)c1	.	11	-0.2	1	-0.6	5
CCn1c(SCC(=O)OCc2ccccc2)nnc1-c1ccco1	-3.0%[38.3 µM]	1	0.1	2	0.0	-8
COCCCN1C(=O)c2ccc(C(=O)Nc3ccccc3Cl)cc2C1=O	0.2%	.	-3.7	-3	0.2	2
Cc1ccc(S(=O)(=O)N/N=C/c2c[nH]c3ccccc23)cc1	3.5%	4	-17	-1	3.7	-2
Cc1cccn2c(CNCCc3ccco3)c(C(=O)N3CCOCC3)nc12	-1.3%	-3	0.8	-18	-0.5	-14
CCOc1[nH]n(-c2ccccc2)c(=O)c1C=Nc1ccc(C)cc1	7.8%	3	-2.2	-6	1.5	-2
COc1ccc(NC(=O)/C(C#N)=C\c2ccc(-c3cccc(C(=O)O)c3C)o2)cc1	1.7%	-17	3.5	-22	-0.2	4
CCN1CCN(c2cc(C)c3cc(NC(=O)c4ccncc4)ccc3n2)CC1	-0.5%	0	1.9	-1	-0.8	-22
Cc1ccc(N(CCC#N)C(=O)COC(=O)c2nc3nc(C)cc(C)n3n2)cc1	2.6%	-3	-1.8	2	0.0	-12
O=C(N=Nc1c(O)n(Cc2ccccc2)c2ccccc12)c1ccc(O)cc1	4.1%	-19	-3.7	?	1.3	-20
CCOC(=O)N1CCC(NC(=O)Cn2cccc2C(=O)c2ccccc2)CC1	0.1%	-1	-3.1	4	1.6	1
COc1ccc(C2/C=C\CN(C(=O)C3CCCCC3)CC(=O)N2Cc2ccc(F)cc2)cc1 (stereo unspecified)	1.6%	-8	-1.0	-3	0.9&1.1	-6
O=C(Nc1ccccc1C(=O)N1CCCCC1)C1CCCCC1	6.4%[38.3 µM]	4	-1.9	0	0.2	-16
CCOc1ccc(C(C)=O)cc1COC(=O)c1cc([N+](=O)[O-])ccc1N1CCOCC1	1.9%	-5	-6.1	-17	0.0	-3
O=C(CNC(=S)NC(=O)c1ccco1)c1ccccc1	-0.2%	0	-3.2	19	0.7	-18
CN1CCCC(OC(=O)c2ccc(C(C)(C)C)cc2)C1 (stereo unspecified)	0.4%	-2	-1.7	1	-0.1	-14
COc1ccccc1/C=N/NC1=NCCCCC1	-2.5%[38.3 µM]	4	-1.7	1	0.3	-8
COc1ccc(OCC(=O)NNC(=O)C(=O)N2CCCC2)cc1	2.7%	18	-1.7	5	-0.4	-7
CNC(=O)C(=O)NCC(c1cccs1)S(=O)(=O)c1ccc(C)cc1 (stereo unspecified)	0.5%	-9	-5.5	-8	0.0	-23
COCCNc1nc2c(c(=O)n(C)c(=O)n2C)n1Cc1cccc(C)c1	-1.4%	1	1.5	-1	0.9	1
COc1ccc2[nH]c(=O)c(CN(C(=O)c3cccnc3)c3ccc(C)cc3C)cc2c1	-0.6%	-10	1.3	3	1.0	-1
CC(C)OC(=O)CSc1nnc(-c2ccccn2)n1-c1ccccc1	-2.4%	15	-4.4	-9	-1.3	-14
O=c1c2ccccc2nnn1CSc1nnnn1-c1ccccc1	-1.4%	-3	-0.2	6	-0.2	-11
CCOc1ccc(S(=O)(=O)N2CCCC(C(=O)NCc3ccccn3)C2)cc1C (stereo unspecified)	1.4%	-13	6.9	-19	1.1	-1
COCCCNC(=O)COc1ccc(S(=O)(=O)NCc2ccccc2)cc1Cl	1.6%	4	-7.4	4	-1.6	3
CSc1cccc(NC(=S)N(CCC(C)C)C(C)c2ccncc2)c1 (stereo unspecified)	3.3%	.	-3.7	-12	-0.2	-18
CC(=O)OC[C@@H]1CN(Cc2ccccc2)C[C@H](n2cnc3c(N4CCOCC4)ncnc32)O1	4.0%	3	-6.0	-9	-0.7	-7
COc1cc(OC)cc(C(=O)Nc2ccc(S(=O)(=O)Nc3ccccn3)cc2)c1	-1.0%	5	-0.3	3	0.1	-3
CC1C(=O)N(Cc2ccc([N+](=O)[O-])cc2)c2ccccc2N1C(=O)C1CC1 (stereo unspecified)	-0.7%	-3	2.6	-8	0.5	-8
CCOc1ccc2cc(S(=O)(=O)n3ccnc3C)ccc2c1	0.0%	1	-2.7	0	-0.4	-4
O=C(NCCc1c[nH]c2ccccc12)c1cc(Cl)c2c(c1)OCO2	0.2%	-5	0.9	-17	1.1	-6
Cc1ccc(S(=O)(=O)N2CCOCC2)cc1NC(=O)COC(=O)c1ccc(Cl)nc1	2.5%	-1	-3.2	3	0.4	-3
O=C(O)c1ccccc1C(=O)c1ccc2c(c1)N(Cc1cccc(F)c1)C(=O)CO2	-0.4%	0	-2.5	-2	2.3	-2

# 2 successive records already listed, quoted:
Structure	PINK1 expr mod	CtBP-E1A blk	D2 agonist	Six1-Eya2 inh	TRPML1 ag	D2 PAM
Cc1ccc(S(=O)(=O)N2CCOCC2)cc1NC(=O)COC(=O)c1ccc(Cl)nc1	2.5%	-1	-3.2	3	0.4	-3
O=C(O)c1ccccc1C(=O)c1ccc2c(c1)N(Cc1cccc(F)c1)C(=O)CO2	-0.4%	0	-2.5	-2	2.3	-2

# (list continues)
Structure	PINK1 expr mod	CtBP-E1A blk	D2 agonist	Six1-Eya2 inh	TRPML1 ag	D2 PAM
CCC(C)(C)NC(=O)c1ccc(Br)o1	0.9%	2	4.3	1	0.2	-14
Cc1nn(Cc2ccc(F)cc2)c2sc(C(=O)Nc3ccc(N4CCOCC4)cc3N3CCOCC3)cc12	3.5%	?	2.8	?	2.0	-14
COc1cccc(OC2(C)CCN(Cc3ccc(-c4ccccn4)cc3)C2)c1 (stereo unspecified)	0.7%	-23	2.8	-22	-0.9	-6
S=c1[nH]nc(-c2cnccn2)n1-c1ccccc1	-1.2%	-3	-0.2	6	-0.1	-1
COc1ccc2oc(C(=O)N3CCN(C(c4ccccc4)c4ccccc4)CC3)c(C)c2c1	-0.2%	-15	-4.2	-6	1.6	-26
CC(=O)N1c2ccc(S(=O)(=O)NCc3ccco3)cc2CC1C (stereo unspecified)	-0.3%	.	0.1	-2	1.3	-9
CN(Cc1ccccc1F)C(=O)C1CCCN(C(=O)c2ccc(Cl)cc2)C1 (stereo unspecified)	-2.6%	4	-0.9	2	0.7	-7
COc1ccccc1-n1cnc(N)c1C(C)=O	1.9%	3	-5.5	10	0.2	0
CCOC(=O)c1sc2nc(C)nc(NCc3cccnc3)c2c1C	-0.4%	0	-1.4	1	0.0	-5
COc1ccc(-c2[nH]ncc2CN2CCCO2)cc1F	0.7%	4	2.3	-1	0.0	0
N#Cc1ccccc1NC(=O)c1ccc(-c2ccccc2Cl)o1	0.8%	1	0.0	-1	4.8	8
COC(=O)CCC(=O)N1CCOCCOCCN(C(=O)CCC(=O)OC)CCOCCOCC1	1.8%	2	-2.5	18	-0.1	0
CCOC(=O)C1=C(CC)OC(N)=C(C#N)C1c1ccc(OC)c(OC)c1OC (stereo unspecified)	-1.2%	-9	3.8	3	-0.8	-6
CCOc1ccc(C(=O)NN2CCOCC2)cc1	-1.1%	9	-1.4	2	0.3	-24
O=C(O)c1cc(N/N=C/c2cccc3ccccc23)ccc1Cl	0.8%	-17	-2.4	-24	0.3	-1
CC(C)CC(=O)NC(NC(=S)Nc1ccccc1)C(Cl)(Cl)Cl (stereo unspecified)	7.0%	-18	-2.8	12	-0.5	11
CCOC(=O)c1nnn2c1nc(N1CCOCC1)c1ccccc12	-1.1%	12	-3.0	-4	1.4	2
COC(=O)[C@@]1(Cc2ccc(OC)cc2)[C@H]2c3cc(C(=O)N4CCCC4)n(Cc4c(CO)[nH]cc(C)c4=O)c3C[C@H]2CN1C(=O)c1ccccc1	0.8%	-8	-2.7	-4	7.2	-11
CCCCN(C(=O)CSCC(=O)Nc1ccc(OC)cc1)c1c(N)n(CC(C)C)c(=O)[nH]c1=O	-4.9%	-1	-3.6	-1	0.0	-2
CN(Cc1ccccc1)C(=O)C1CCCN1S(=O)(=O)c1ccc2c(c1)n(C)c(=O)c(=O)n2C (stereo unspecified)	0.6%	1	-1.0	7	1.6	0
CCCCc1nnc(SCCSc2nnc(CCCC)n2N)n1N	3.5%	0	-0.7	15	-0.5	2
COc1cc(-c2noc(C)c2C(=O)NCCCN2CCCC2=O)cc(OC)c1OC	1.6%	-1	-4.5	0	0.4	-4
Cc1n[nH]c(C)c1Sc1ccccc1[N+](=O)[O-]	1.3%	8	-3.4	-2	0.7	-1
COc1ccc(CNC(=O)CN2C(=O)c3ccc([N+](=O)[O-])cc3C2=O)cc1	3.8%	-2	9.7	10	-1.5	?
CC(=O)c1c(C)[nH]c(C(=O)COC(=O)CN(C)S(=O)(=O)c2ccc(Cl)cc2)c1C	-0.3%	-10	3.0	0	0.1	1
O=C(NC(Cc1ccccc1)C(=O)N1CCN(c2ccccn2)CC1)c1ccco1 (stereo unspecified)	.	0	-1.6	23	0.1	0
CC(C)Cn1c(N)c(C(=O)COC(=O)c2nccnc2N)c(=O)n(C)c1=O	1.4%	-20	-1.8	-1	0.8	0

# 4 structures out of the list, ordered by SMILES length, smallest number first.
Structure	PINK1 expr mod	CtBP-E1A blk	D2 agonist	Six1-Eya2 inh	TRPML1 ag	D2 PAM
Cc1n[nH]c(C)c1Sc1ccccc1[N+](=O)[O-]	1.3%	8	-3.4	-2	0.7	-1
O=C(NC(Cc1ccccc1)C(=O)N1CCN(c2ccccn2)CC1)c1ccco1 (stereo unspecified)	.	0	-1.6	23	0.1	0
CC(C)Cn1c(N)c(C(=O)COC(=O)c2nccnc2N)c(=O)n(C)c1=O	1.4%	-20	-1.8	-1	0.8	0
COc1ccc(CNC(=O)CN2C(=O)c3ccc([N+](=O)[O-])cc3C2=O)cc1	3.8%	-2	9.7	10	-1.5	?

# High-throughput results deposited in PubChem BioAssay by National Center for Advancing Translational Sciences (NCATS).
